Assay outcomes: PubChem BioAssay, National Center for Advancing Translational Sciences (NCATS)
Vaccinia Venus = vaccinia inhibition (Venus reporter); Vaccinia virus Venus reporter expression, fluorescence; Potency, µM (series often up to 36.5 µM), for the others: top-dose activity change, negative = inhibition, actives largely listed as inhibitors; 330,000 compounds, 0.46% hits; active means well fitted inhibition curve with a large enough effect; inconclusive means small, poorly fitted or top-dose-only effect; inactive means no such curve, though single readings can be large or run the other way; tested in A549 cells; note: nearly all actives have a fitted effect of over 30% in size; inactives centre near -10
Vaccinia mCherry = inhibitors of vaccinia virus infection (mCherry reporter signal); AID 720579; 310,000 compounds, 0.63% hits; Vaccinia virus mCherry reporter infection, fluorescence; about a quarter of the inactives have no number; Potency, µM (highest dose often 36.5 µM), inactives show at the top dose activity change, negative = inhibition, usual class: inhibitors; active = well fitted inhibition curve with a large enough effect; inconclusive = small, poorly fitted or top-dose-only effect; inactive = no such curve, though single readings can be large or run the other way; tested in A549 cells; note: nearly all actives have a fitted effect of over 35% in size; inactives centre near -10
* = called active by the depositor; i = inactive; ? = inconclusive; . = not tested or not shown. % is set by controls: 0 for no effect and ±100 for the full control effect; potency is the fitted concentration of half-maximal effect.

Compound | Vaccinia Venus | Vaccinia mCherry
COc1ccc(-c2cc3nc(C4CCN(C(=O)OC(C)(C)C)CC4)c(C(=O)Nc4cc(C)cc(C)c4)cn3n2)cc1 | -16.4% | -16.4%
COc1ccc(-n2nc3cc(N)c(Br)cc3n2)cc1 | -29.0% | ?
NNc1nc2sc3c(c2c(=O)[nH]1)CCc1ccccc1-3 | 0.0% | ?
CSc1nnc(C)c(=O)n1COC(=O)COc1ccccc1F | 5.4% | -4.4%
COc1ccc(CCNC(=O)C(C)SCc2ccccc2)cc1 (stereo not drawn) | -1.9% | i
COc1cc(OC)c2c(c1)OC(=O)CC2c1ccc(C)cc1 (stereo not drawn) | -23.5% | -9.2%
CN1OC(CC(=O)O)N(c2ccc(Cl)cc2)C1=O (stereo not drawn) | -8.7% | -6.0%
O=C(c1ccc(Cl)cc1)N1CCN(CCc2ccccn2)CC1 | -11.8% | -13.2%
Cc1c(NC(=O)c2cc(C3CC3)on2)c(=O)n(-c2ccccc2)n1C | -2.2% | i
CSc1cccc(NC(=S)NCCCO)c1 | -5.4% | i
COc1ccc(C(C(=O)OCCN(C)C)c2ccccc2)cc1 (stereo not drawn) | -7.8% | .
O=C1CCCN1c1ccc(C(=O)N(Cc2nnc(-c3ccccc3Cl)o2)C2CC2)cc1 | -12.4% | -13.4%
COc1ccc(NC(=O)C2CC3CCC2C3)c(OC)c1 (stereo not drawn) | 4.8% | -20.3%
Cc1nnc(NC(=O)CCNC(=O)c2ccccc2Cl)s1 | -2.6% | -5.5%
COc1ccc(-n2c(=O)c3ccccc3n(CC(=O)NC3CCCCC3)c2=O)cc1OC | -22.1% | i
Cc1cc(C)cc(NC(=S)N(CCCN2CCN(C)CC2)Cc2cccs2)c1 | -6.4% | -13.3%
CCOC(=O)c1cnn(C(=O)c2ccccc2)c1N | -16.4% | -0.5%
CCn1c(SC)nc2c([nH]c3ccccc32)c1=O | -22.7% | -22.6%
CC(=O)c1cc(C#N)c(SCc2ccccn2)nc1C | -8.9% | -16.9%
Cc1ccc(OCC(=O)NCCNC(=O)c2cnccn2)cc1C | 1.7% | -4.8%
Cc1ccsc1C(=O)N1CCCC(CO)(Cc2ccccc2F)C1 (stereo not drawn) | -11.6% | -26.7%
O=C(Oc1ccc(OC(=O)N2CCOCC2)cc1)c1ccccc1 | -10.0% | .
COc1cc2ccccc2cc1C(=O)Nc1nccs1 | -6.9% | 17.2%
CC1=C(C(=O)OCc2ccccc2)C(c2ccoc2)C(C#N)=C(N)O1 (stereo not drawn) | -7.4% | -12.2%
CCC1(CC)Cc2ccccc2-c2nc3ccccc3c(=O)n21 | ? | -7.3%
O=C(NC(=S)N1CCN(C(c2ccccc2)c2ccccc2)CC1)c1ccc(S(=O)(=O)N2CCOCC2)cc1 | -7.8% | -10.7%
Cc1cccnc1N(C(=O)Nc1ccccc1)C1=NCC(C)(C)S1 | 0.0% | -8.4%
COc1cc(/C=N/n2c(COc3ccccc3)n[nH]c2=S)cc(Br)c1O | -11.6% | i
CC(NS(=O)(=O)c1ccc(Cl)cc1)C(=O)N1CCOCC1 (stereo not drawn) | -9.5% | i
COc1ccc(NC(=O)Cc2c(Sc3ccccc3)c3ccccc3n2C)cc1 | -1.8% | -14.4%
O=C(CCc1[nH]c2ccccc2c1Sc1ccccc1)N(CCO)CCO | -5.0% | -14.9%
Oc1c(CN2CCOCC2)cc(CN2CCOCC2)cc1CN1CCOCC1 | -0.4% | i
CCOC(=O)c1c(NC(=O)COC(=O)CCS(=O)(=O)c2ccc(C)cc2)sc(C)c1C | ? | ?
COc1ccccc1Nc1nn2c(=O)c3ccc(C(=O)NCCc4ccccc4)cc3nc2s1 | ? | ?
CN(C(=O)COC(=O)CCc1c[nH]c2ccccc12)c1ccccc1 | -13.9% | i
COc1ccccc1NC(=O)N(Cc1ccco1)Cc1cc2ccc(C)c(C)c2[nH]c1=O | ? | i
CN1CCN(C(=O)C2CCCN(S(=O)(=O)c3ccccc3)C2)CC1 (stereo not drawn) | -8.2% | -2.5%
CC(C)CCNC(=O)c1cc([N+](=O)[O-])ccc1N1CCOCC1 | -9.3% | -9.7%
COc1ccc(S(=O)(=O)N(C)C[C@@H]2Oc3cc(Br)ccc3S(=O)(=O)N([C@H](C)CO)C[C@@H]2C)cc1 | ? | -13.2%
CCn1c(CNc2ccc(F)cc2)nnc1SCC(=O)Nc1ccccc1OC | -9.0% | i
COc1cc(=O)n2c(c1C(=O)N(C)Cc1nonc1C)CCN(Cc1ccc(C)cc1C)CC2 | 1.1% | -17.8%
O=C(c1ccc(CS(=O)(=O)c2cccc(C(F)(F)F)c2)o1)N1CCN(c2ccccn2)CC1 | -11.2% | -18.9%
Cc1ccc(CCNC(=O)CCS(=O)(=O)c2ccc3c(c2)oc(=O)n3C)cc1 | -6.1% | -16.0%
COc1ccc(NC(=S)NCCc2c[nH]c3ccc(OC)cc23)c(OC)c1 | -6.6% | -28.9%
Cc1ccc(-c2nc(N/N=C/c3ccncc3)c3ccccc3n2)cc1 | -8.2% | -6.8%

Single records (already shown):
Results for COc1ccc(C(C(=O)OCCN(C)C)c2ccccc2)cc1 (stereo not drawn) → Vaccinia Venus = -7.8%; Vaccinia mCherry = .
Results for COc1ccc(CCNC(=O)C(C)SCc2ccccc2)cc1 (stereo not drawn) → Vaccinia Venus = -1.9%; Vaccinia mCherry = i

Next records
Compound | Vaccinia Venus | Vaccinia mCherry
CCO[C@@H]1OC(C(=O)NCc2ccccc2)=C[C@H](c2cn(C(C)=O)c3ccccc23)[C@H]1CCCO | -26.8% | -11.6%
CCn1c(C(=O)N2CCCC(C(=O)N3CCN(c4cc(C)ccc4C)CC3)C2)cc2sccc21 (stereo not drawn) | -9.2% | -18.5%
C#Cc1ccc([C@@H]2C=C(C(=O)OCC=C)O[C@H](OCCCCO)C2)cc1 | -14.9% | -14.8%
CCN(CC(=O)Nc1ccc2c(c1)OCCO2)C(=O)C(C)Oc1ccc(Cl)cc1 (stereo not drawn) | -14.2% | -20.3%
O=c1cc(-c2ccccc2)[nH]n1-c1nc2ccccc2s1 | -8.8% | -15.0%
Cc1ccc(OCCCc2c(C)n[nH]c2C)cc1 | -17.8% | -8.4%
Cc1ccc(-c2cccc(-c3cc(=O)oc4ccc(C(C)(C)C)cc34)c2)cc1 | -15.6% | -5.4%
CCc1nc2c(OCCC3CCCCC3)cccn2c1N(C)C(=O)COc1ccccc1 | -24.7% | -20.9%
Cn1cc(Br)cc2nc(C(F)(F)F)nc1-2 | -2.6% | .
O=c1c2ccccc2sc2c(CO)ccc(NCCN3CCCCC3)c12 | 10µM* | ?
O=C(Nc1c(Cl)cccc1Cl)C1CCN(C(=O)c2cccs2)CC1 | -1.5% | -3.0%
CC(C)(C)c1ccc(CC(=O)N2CCC2(C)C(=O)NS(=O)(=O)c2ccccc2Cl)cc1 (stereo not drawn) | -24.8% | -4.1%
CCOc1ccccc1N1CCN(C(=O)c2ccncc2)CC1 | -9.4% | -24.4%
CCOC(=O)[C@]12CCC=C1N(Cc1cccc3ccccc13)C(=O)[C@H](CC(=O)NCCc1ccccc1OC)C2 | -26.4% | ?
Cn1c2c(c(=O)n(C)c1=O)C(c1ccccc1C(F)(F)F)CC(=O)N2 (stereo not drawn) | -11.6% | -2.8%
O=C(c1ccco1)N1CCC(c2nc3c(nnn3Cc3ccc(F)cc3)c(=O)[nH]2)CC1 | -11.1% | -23.0%
Cc1ccc(C(=O)NCCN2CCC(n3c(=O)[nH]c4ccccc43)CC2)cc1F | -6.4% | -12.2%
COc1ccc(OC)c(NC(=O)C2CCCN(S(=O)(=O)c3ccc(-n4cnnn4)cc3)C2)c1 (stereo not drawn) | 10.2% | -0.6%
C=CCSc1nnc(-c2cc(C(C)(C)C)nn2Cc2ccc(F)cc2)n1C | -11.1% | i
O=C1CCc2cc(S(=O)(=O)NC(Cc3ccccc3)C(=O)NC3CCCC3)ccc2N1 (stereo not drawn) | -1.2% | 13.8%
Cc1cc(C)n(CCc2nc3c4ccccc4nc(SCc4ccc(F)cc4)n3n2)n1 | 8.2% | -3.1%
CC1(C)Cc2c(sc3nc(SCC(=O)O)nc(N)c23)CO1 | -9.1% | i
CCC[C@@H](CN[C@@H](CNC)[C@H](C)CC)NCC1CCC(C(C)(C)C)CC1 (stereo partly drawn) | 12.6µM* | ?
O=c1[nH]c(SCc2ccccc2)nc2ccsc12 | -9.5% | -15.2%
O=C(CCc1nc2ccccc2c(=O)[nH]1)NCCN1C(=O)S/C(=C\c2ccc(OC(F)F)cc2)C1=O | -8.3% | -10.5%
CC(C)(C)c1ccc(C(=O)NCC(=O)O)cc1 | -14.8% | -0.1%
NNC(=O)C1CCN(S(=O)(=O)c2ccc(Cl)cc2)CC1 | 3.7% | i
S=c1[nH]nc(-c2ccc(Cl)cc2Cl)n1-c1ccc(Cl)cc1 | -2.6% | i
C=C(C)Cn1c(N2CC(C)CC(C)C2)nc2c1c(=O)[nH]c(=O)n2C (stereo not drawn) | ? | ?
Cc1ccccc1-c1n[nH]nc1C1=CC(=O)C[C@H](c2ccc(F)cc2)C1 | -23.2% | i
CSc1ncccc1C(=O)OCC(=O)NC(C)C | -3.2% | i
O=C(CN1CCOc2ccccc21)NCc1ccccc1 | -2.2% | -4.3%
Cc1cc2ncn(CCOc3ccccc3C#N)c2cc1C | -29.0% | .
Cc1c(NC(=O)CS(=O)(=O)c2ccccc2)c(=O)n(-c2ccccc2)n1C | -11.1% | i
COc1ccccc1NC(=O)CSc1oc(-c2ccc(F)cc2)nc1S(=O)(=O)c1ccc(Br)cc1 | ? | 14.1µM*
COC(=O)C(C)NC(=O)c1ccc(C(C)(C)C)cc1 (stereo not drawn) | -14.1% | -19.0%
CC(=O)Nc1ccc(NC(=O)CSc2nnc(-c3cccnc3)o2)cc1 | 1.5% | i
CCCCn1c(=O)[nH]c(=O)c2c1nc(Cn1ncc(Cl)c(Cl)c1=O)n2CCC | ? | ?
COC(=O)Nc1ccc2ncn(C)c(=O)c2c1 | -12.8% | -23.1%
O=C(CSCn1nnc2c(=O)[nH]c(Cc3ccc(F)cc3)nc21)Nc1cccc(C(F)(F)F)c1 | 0.6% | -5.0%
CCOc1ccc(CCNC(=O)Cn2c(=O)c3cccn3c3cccnc32)cc1 | 9.1% | -1.9%
COCCN1Cc2cccc(C(=O)Nc3ccc(C)cc3)c2C1=O | -14.0% | i
Cc1ccccc1NC(=O)OCc1ccccc1 | -8.3% | -2.6%
CC(C)(C)c1ccc(C(=O)NCc2ccc(Cl)cc2)cc1 | ? | -12.0%
CCc1ccc(CNC(=O)c2cc3ccccn3n2)cc1 | -7.0% | -7.6%
C[N+]1(CCCCC[N+]2(C)CCCC2)CCCC1 | -1.3% | -7.3%
Cc1onc(-c2c(Cl)cccc2Cl)c1C(=O)Nc1c(C)n(C)n(-c2ccccc2)c1=O | -3.6% | -4.3%
COc1ccc(CCNC(=O)C23CN(Cc4ccccc4)CC2C(c2cccc([N+](=O)[O-])c2)=NO3)cc1 (stereo not drawn) | -13.2% | -26.9%
Cc1ccc(S(=O)(=O)N2CCN(C(=O)COC(=O)CNC(=O)c3ccc(Cl)cc3Cl)CC2)cc1 | -21.6% | i
CCOC(=O)C1(CC2CCCCO2)CCN(Cc2cccnc2)CC1 (stereo not drawn) | -11.7% | i
CCOC(=O)c1c(NC(=O)CSc2nc3nc(C)cc(C)n3n2)sc(CC)c1C | -19.6% | -9.7%
COc1ccc(CCNC(=O)C2CCN(c3ncnc4c3nc3n4CCCCC3)CC2)c(OC)c1 | -4.3% | -14.6%
COC(=O)c1c(C)n(Cc2ccccc2)c2ccc(O)cc12 | -16.6% | -17.3%
COc1cc2c(C#N)c(N3CCc4ccccc4C3)nc(N)c2c(N)n1 | ? | -15.1%
O=C(CNC(=O)c1sc2ccccc2c1Cl)Nc1ccccc1F | -5.0% | i
NS(=O)(=O)c1ccc(NC(=O)NC2CCCCC2)cc1 | -4.0% | i
CCOC(=O)C1(Cc2cccc(OC)c2)CCN(C2CCOCC2)CC1 | -8.1% | -9.2%
COc1ccc(CNC(=O)CN(C(=O)c2csnn2)c2ccc(F)cc2)cc1 | -11.6% | -25.5%
Cn1c(SCCOc2cccc(Cl)c2)nnc1-c1ccncc1 | -10.7% | -15.3%
C#CCNC(=O)C1=C[C@H](c2coc3ccccc3c2=O)C[C@H](OCc2ccc(CO)cc2)O1 | -8.2% | i

(further entries)
Compound | Vaccinia Venus | Vaccinia mCherry
COc1cc(C(=O)N2CCCc3ccccc32)cc(OC)c1OC | ? | ?
COc1ccc(C(=O)NC2CCN(CC(=O)Nc3cccc(C)c3)CC2)cc1OC | -14.4% | -5.3%
COc1ccc(-c2cc(-c3n[nH]c(=S)n3-c3ccccc3OC)[nH]n2)cc1 | -13.3% | -17.7%
O=C(O)C(Cc1ccccc1N(CCO)CCO)N1C(=O)c2ccccc2C1=O (stereo not drawn) | 10.9% | -7.3%
O=C(c1ccccc1)c1c[nH]c(C(=O)NNc2ccccc2)c1 | -15.3% | -27.6%
O=C(O)C(CCCCN1C(=O)C2C3C=CC(C3)C2C1=O)N1C(=O)C2C3C=CC(C3)C2C1=O (stereo not drawn) | -15.4% | .
CCOc1ccc2[nH]c(=S)sc2c1 | -3.2% | i
Cc1ccc(CN(Cc2cccnc2)C(=S)Nc2cc(Cl)ccc2C)cc1 | -2.2% | -11.0%
